WNV NS2B-NS3 inh: inhibitors of West Nile virus NS2B-NS3 protease; WNV NS2B-NS3 protease, fluorogenic substrate Ex360/Em465; stronger effect = lower value; z-score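 (tested at a level between 10 and 100 µM)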; hit rate 0.18% among 65,000;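 active means z-score at -3 or under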;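 further: score is relative to mean and spread of the compound wells of a plate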
Target sequence (P06935 1371-1501 limits assumed): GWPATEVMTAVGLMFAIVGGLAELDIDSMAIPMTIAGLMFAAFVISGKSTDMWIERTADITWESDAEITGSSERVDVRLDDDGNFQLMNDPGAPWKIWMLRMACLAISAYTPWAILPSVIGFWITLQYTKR
Target sequence (P06935 1502-1679 limits assumed): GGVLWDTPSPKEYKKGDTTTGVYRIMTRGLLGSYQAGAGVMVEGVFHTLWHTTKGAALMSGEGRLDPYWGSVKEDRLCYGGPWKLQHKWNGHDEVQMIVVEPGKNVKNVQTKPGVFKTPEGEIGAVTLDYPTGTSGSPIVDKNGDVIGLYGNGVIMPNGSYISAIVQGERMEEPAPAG
Hsc70 ATP site: Hsc70 inhibitors, probe displacement, primary screen, biochemical, fluorescence polarization (AID 568); Hsc70 fluorescence polarization, probe displacement; higher % means a stronger effect; strong numbers were not always called active; displacement, % at 20 µM; hits with a dose series show IC50 in µM; 83,000 tested, under 10 active;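 active means displacement above 50% without optical interference and an IC50 on retest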;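 further: ATPase domain with a fluorescein-tagged ATP probe; 0% = vehicle and 100% = excess ADP; read after one hour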
MT1-MMP reporter: inhibitors of MT1-MMP promoter transcription, cell-based, luciferase reporter, luminescence (AID 618). hit rate 0.62% among 87,000. calls from a first round at 10 µM; hits with a dose series show EC50 in µM. MT1-MMP promoter luciferase reporter cells, luminescence;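 active means over half of the reporter light lost at 10 µM or EC50 under 50 µM; inactive means the rest and hits that failed the dose series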;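 further: actives suppress MT1-MMP promoter-driven transcription so potencies describe inhibitors; HT1080 fibrosarcoma cells; overnight exposure; toxic or luciferase-blocking compounds were not removed from the actives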
* marks the source's active call; other numbers are inactive results; i = inactive; / = no result given. These rows are one share of the data; the hit share may differ from the screen's.

SMILES	WNV NS2B-NS3 inh	Hsc70 ATP site	MT1-MMP reporter
CCOC(=O)C1CCCN(S(=O)(=O)c2ccc(C)cc2)C1 (stereo unspecified)	-0.2	-3.3%	i
O=C1c2ccccc2C(=O)N1CCc1nc2ccccc2c(=O)n1Cc1ccco1	-0.11	2.5%	i
Cc1ccc(Cn2nc(C)c(NC(=O)C3CC3)c2C)cc1	/	-2.5%	i
Cn1c(=O)oc2cc(S(=O)(=O)Nc3ccc(Cl)cc3F)ccc21	-0.72	0.0%	i
CCOc1ccccc1NC(=O)c1cc(S(=O)(=O)N2CCC3(CC2)OCCO3)ccc1F	-0.89	-0.3%	i
Cc1cccc(-n2c(SCC(=O)NCc3ccco3)nc3ccccc3c2=O)c1	0.18	1.2%	i
O=C(NC1CCCC1)C(c1ccc(N2CCOCC2)cc1)N(Cc1ccccc1)C(=O)c1ccco1 (stereo unspecified)	-0.03	2.1%	i
O=c1c2c3c(sc2n2cnnc2n1C1CCCCC1)CCC3	1.46	-1.0%	i
CCN(CC(=O)Nc1ccc(OC)c(OC)c1)S(=O)(=O)c1ccc(C)cc1	-0.39	-7.5%	i
CCOC(=O)Cc1csc(-n2sc3ccccc3c2=O)n1	0.28	-15.7%	i
CC1CN(Cc2nc3c(c(=O)n(C)c(=O)n3C)n2CC(O)CO)CC(C)O1 (stereo unspecified)	0.89	-2.6%	i
CCOC(=O)C1CCCN(S(=O)(=O)c2cc(OCC(N)=O)c(C)cc2Cl)C1 (stereo unspecified)	1.42	-6.8%	i
Cc1ccc(C2CC2C(=O)NNC(=S)Nc2cccc(C)c2)cc1 (stereo unspecified)	/	6.2%	i
O=C1CCCCCN1CSc1nc2ccccc2s1	-1.13	5.1%	i
Cn1nnnc1SCc1nnc(-c2ccc(Cl)cc2)o1	-1.28	8.2%	i

Going on with the list:
SMILES	WNV NS2B-NS3 inh	Hsc70 ATP site	MT1-MMP reporter
COc1ccccc1C(c1nnnn1C(C)(C)C)N1CCN(Cc2ccccc2)CC1 (stereo unspecified)	/	2.4%	i
CCOC(=O)C1CCN(C(c2cc3ccc(C)c(C)c3[nH]c2=O)c2nnnn2C2CCCCC2)CC1 (stereo unspecified)	0.06	-5.8%	i
CC(SCc1cn2cc(Cl)ccc2n1)C(=O)O (stereo unspecified)	/	-2.1%	i
CC(=O)N/C(=N/c1nc(C)cc(C)n1)Nc1ccc(NC(C)=O)cc1	0.73	-2.1%	i
COCCSc1nnc(NC(=O)CSc2ccccc2)s1	-1.22	-3.5%	i
C=CCn1c(=O)c(C(=O)Nc2cccnc2)c(O)c2ccccc21	/	-16.0%	i
COc1ccc(C2=NOC3(CC(=O)N(c4ccc(C)cc4)C3=O)C2)cc1 (stereo unspecified)	/	-7.1%	i
CCOc1ccc(OCC)c(S(=O)(=O)N2CCCCC2)c1	0.3	-4.7%	i
COc1ccc(NC(=O)CC2C(=O)N(c3cccc(C)c3)C(=O)N2C2CCCCC2)cc1 (stereo unspecified)	/	1.6%	i
CCOC(=O)/C(=C\Nc1ccc(OC(F)(F)F)cc1)Sc1ncc(C(F)(F)F)cc1Cl	/	-1.2%	i
Cc1c(NC(C)c2cc(Cl)ccc2O)c(=O)n(-c2ccccc2)n1C (stereo unspecified)	/	0.7%	i
CCCCN1c2ccccc2N(CCCO)c2cc(C)nnc21	0.58	0.1%	i
COC(=O)c1c(NS(=O)(=O)c2cccs2)sc2c1CCCC2	0.61	-6.8%	i
COc1ccc(NC(=O)NC2(C(=O)N3CCCCCC3)CCCCC2)cc1	0.69	-8.3%	i
CC(C)C(=O)N1CCN(c2ccccc2N)CC1	-0.42	2.6%	i

Next section:
SMILES	WNV NS2B-NS3 inh	Hsc70 ATP site	MT1-MMP reporter
N#Cc1ccc(NC(=O)C2CC(c3ccc(F)cc3)=NO2)cc1 (stereo unspecified)	0.98	3.6%	i
O=C(NC1CCN(C(=O)N2CCOCC2)CC1)c1ccccc1	1.8	5.8%	i
COc1ccccc1N1CCSC1C(N)=O (stereo unspecified)	-0.74	-2.7%	i
COc1ccc(OC)c(-n2c(-c3ccccc3)n[nH]c2=S)c1	/	-5.6%	i
COc1ccc(F)cc1S(=O)(=O)NC1CCCC1	/	1.7%	i
COc1cc(NC(=O)c2ccc(NS(=O)(=O)c3c(C)noc3C)cc2)cc(OC)c1	-0.99	-1.0%	i
COc1cccc(OCC(=O)Nc2c(C(=O)Nc3ccc(OC)cc3OC)oc3ccccc23)c1	0.21	-3.3%	i
CC(C)(O)c1cn(-c2nonc2N)nn1	2.2	0.0%	i
Cc1ccc(Cn2nnc3c(=O)n(CC(=O)N4CCCc5ccccc54)cnc32)cc1	0.33	-10.9%	i
CC(C)Sc1nc2sc3c(c2c2nnc(SCC(=O)NCc4ccco4)n12)CCCC3	-0.53	-5.1%	i
COc1ccc(C(c2sc3nc(C)nn3c2O)N2CCC(O)CC2)cc1OC (stereo unspecified)	-0.3	0.2%	i
CC(C)C1Nc2ccc(S(N)(=O)=O)cc2C2C=CCC21 (stereo unspecified)	1.5	16.0%	i
CN(C)S(=O)(=O)c1ccc2c(c1)C(CC(=O)O)OC2=O (stereo unspecified)	0.3	1.2%	i
CS(=O)(=O)N(CC(=O)N1CCN(c2ccccc2F)CC1)c1ccc2c(c1)OCCO2	0.3	1.8%	i
CC1OC2(OC1C)C(=O)Nc1ccccc12 (stereo unspecified)	/	4.0%	i

One compound at a time, as listed above. Screens in order: WNV NS2B-NS3 inh	Hsc70 ATP site	MT1-MMP reporter
`CN(C)S(=O)(=O)c1ccc2c(c1)C(CC(=O)O)OC2=O` (stereo unspecified) in the list: 0.3	1.2%	i
`COc1ccc(OC)c(-n2c(-c3ccccc3)n[nH]c2=S)c1` in the list: /	-5.6%	i
`COc1cccc(OCC(=O)Nc2c(C(=O)Nc3ccc(OC)cc3OC)oc3ccccc23)c1` in the list: 0.21	-3.3%	i
`N#Cc1ccc(NC(=O)C2CC(c3ccc(F)cc3)=NO2)cc1` (stereo unspecified) in the list: 0.98	3.6%	i
`COc1ccccc1N1CCSC1C(N)=O` (stereo unspecified) in the list: -0.74	-2.7%	i

Next compounds follow.
SMILES	WNV NS2B-NS3 inh	Hsc70 ATP site	MT1-MMP reporter
CCCc1nc(NCc2ccccn2)c2nnn(Cc3ccccc3F)c2n1	/	-2.0%	i
CN(C)CCCNc1c2c(c(C#N)c3nc4ccccc4n13)CCC2	-1.81	2.8%	i
Cn1c(=O)c2c(nc(N3CCN(Cc4ccccc4)CC3)n2CCSc2ncccn2)n(C)c1=O	-0.47	-4.7%	i
O=C(NCCc1c[nH]c2ccccc12)C1Cc2ccccc2CN1C(=O)c1ccco1 (stereo unspecified)	-1.03	-1.4%	i
CCC(C)(C)NC(=O)CN(C(=O)CNS(=O)(=O)c1ccc(C)cc1)c1ccc2c(c1)OCCO2	-0.2	-0.7%	i
C=CCn1c(O)c(CN2CCN(Cc3ccccc3)CC2)c(C)c(C#N)c1=O	-1.48	4.1%	i
c1ccc2c(c1)nnn1c3ccccc3nc21	0.48	8.0%	i
Cc1c(C(C)NC(=O)Nc2ccc(F)cc2F)cnn1C (stereo unspecified)	0.05	8.7%	i
CC(NC(=O)C(c1ccccc1)c1ccccc1)C(=O)O (stereo unspecified)	1.76	4.9%	i
O=C(NC1CCCC1)c1ccc2nc[nH]c2c1	-0.67	5.9%	i
CC1Cc2ccccc2N1C(=O)CSc1nnc(NC(=O)Cc2cccs2)s1 (stereo unspecified)	0.35	-14.3%	i
COc1cccc(C(c2nnnn2C(C)(C)C)N2CCN(C3CCCCC3)CC2)c1OC (stereo unspecified)	-0.85	-0.5%	i
CCn1c2ccccc2c2nnc(SCC(N)=O)nc21	/	-2.8%	i
CCc1cccc(Nc2cc(C)nc3ncnn23)c1	-0.76	0.2%	i
O=C(O)CCC(=O)Nc1ccc(S(=O)(=O)Nc2nccs2)cc1	-0.23	1.0%	i

The listing continues:
SMILES	WNV NS2B-NS3 inh	Hsc70 ATP site	MT1-MMP reporter
O=C(COc1ccccc1)Nc1ncccn1	/	0.3%	i
CC(=O)Oc1cc2c(C(=O)NCCCN3CCOCC3)c(C)oc2c2ccccc12	0.22	-2.0%	i
Cc1ccc(NC(=O)C(C)N2C(=O)c3ccccc3C2=O)cc1 (stereo unspecified)	-0.23	-1.6%	i
CSc1nnc2n(CCc3ccccc3)c(=O)c3c4c(sc3n12)CCCC4	0.01	0.1%	i
NC(=O)CN(c1ccccc1)C1SC(=O)N(Cc2ccccc2)C1=O (stereo unspecified)	-1.19	-3.9%	i
Cc1csc(=N)n1CC(=O)N1CCc2ccccc21	-1.95	-5.7%	i
CCn1cc(C(=O)NCc2ccco2)c(=O)c2cc(S(=O)(=O)N3CC(C)CC(C)C3)ccc21 (stereo unspecified)	-0.37	-2.0%	i
N#Cc1cn(CC(=O)N2CCc3ccccc3C2)c2ccccc12	/	2.7%	i
Cn1nnnc1SCC(=O)NCc1cccs1	/	2.7%	i
O=C(CSc1nc2sc3c(c2c(=O)[nH]1)CCCC3)NCCO	-0.18	1.9%	i
CCOC(=O)COc1ccc(C(=O)c2ccccc2)c(O)c1	-0.11	4.1%	i
COC(CN1C(=O)C(O)=C(C(C)=O)C1c1ccccn1)OC (stereo unspecified)	/	-3.1%	i
O=C(Cc1ccccc1)NCC1COc2ccccc2O1 (stereo unspecified)	/	1.3%	i
O=C(C1CCN(S(=O)(=O)c2cccnc2)CC1)N1CCCCC1	/	-5.2%	i
CCc1ccccc1NC1=NCC(=O)N1Cc1ccc2c(c1)OCO2	-0.69	-0.2%	i

Later entries.
SMILES	WNV NS2B-NS3 inh	Hsc70 ATP site	MT1-MMP reporter
CC1(C(=O)NC2CCCCCCC2)CCC(=O)N1Cc1ccco1 (stereo unspecified)	0.01	-1.1%	i
Cn1nc(-c2ccc(Cl)cc2)c2cc(C(=O)NCC3CCCO3)sc21 (stereo unspecified)	-0.33	2.3%	i
N#Cc1c(C(F)(F)F)cc(C2CC2)nc1N1CCCC1	/	2.1%	i
Cc1sc(-n2c(C)cc(/C=N/n3cnnc3)c2C)c(C#N)c1C	0.67	-11.5%	i
CCN(CC)Cc1c(O)ccc2occ(C(=O)c3ccc(OC)cc3)c12	/	4.5%	i
CN1C(=O)CC(NNC(=O)c2ccccc2)C1=O (stereo unspecified)	/	1.8%	i
COCCCn1c(C(C)C)nc2oc3cc(OC)ccc3c(=O)c2c1=O	1.12	-5.8%	i
CC(C)Oc1ccc(N2CC(C(=O)Nc3ccc(N4CCOCC4)cc3)CC2=O)cc1 (stereo unspecified)	/	5.3%	i
O=C(c1n[nH]c2ccccc12)N1CCN(S(=O)(=O)c2ccc3ccccc3c2)CC1	-1.48	-4.6%	i
CC(C)[N+]1(C)[C@@H]2CC[C@H]1CC(OC(=O)C(CO)c1ccccc1)C2 (stereo partly specified)	-0.5	0.1%	i
NC(=O)Nc1ccc(Oc2c(F)c(F)c(F)c(F)c2F)cc1	0.94	0.5%	i
O=c1[nH]c2cc3c(cc2cc1C(c1nnnn1CC1CCCO1)N1CCCC1)OCO3 (stereo unspecified)	0.72	-1.0%	i
FC(F)(F)c1nnc2sc(-c3cccs3)nn12	-0.46	0.2%	i
CCn1nc(NC(=O)c2ccncc2)c2cc3cc(C)ccc3nc21	-1.08	-1.9%	i
O=C(c1ccncc1)c1ccc(N2CCN(C3CC(=O)N(Cc4ccccc4)C3=O)CC2)cc1 (stereo unspecified)	1.01	-0.9%	i

(continued)
SMILES	WNV NS2B-NS3 inh	Hsc70 ATP site	MT1-MMP reporter
O=C(CN1C(=O)NC2(CCCCCCC2)C1=O)NC(=O)NCc1ccco1	-0.18	-8.7%	i
CN1C(=O)CC(N2CCN(c3ccc(Cl)c(Cl)c3)CC2)C1=O (stereo unspecified)	-0.47	-11.5%	i
Cc1ccc(C)c(NC2=CC(=O)CC(C)(C)C2)c1C#N	1.59	6.7%	i
COc1ccc(Cn2c(=O)oc3ccc(C)cc32)cc1OC	-0.89	-1.0%	i
Cc1ccc(NC(=O)Cn2c(=O)n(Cc3ccco3)c(=N)c3c4c(sc32)COC(C)(C)C4)cc1	-0.59	-1.6%	i
O=C(NCc1ccco1)c1nc2nc(-c3cccs3)cc(C(F)(F)F)n2n1	2.9	-2.5%	i
CNC(=O)CN(c1ccc(OC)cc1)S(=O)(=O)c1ccc(F)cc1	-1.14	5.9%	i
C=CCn1c(C)cc(C(=O)CSc2nc3ccccc3o2)c1C	0.7	1.2%	i
O=c1cc(N2CCOCC2)c2ccccc2o1	/	8.0%	i
CC(=O)c1ccc(C#CC(C)(C)O)s1	0.15	-2.6%	i
COc1ccc2cc(C(c3nnnn3C(C)(C)C)N3CCSCC3)c(=O)[nH]c2c1 (stereo unspecified)	0.14	-1.1%	i
COc1ccc(S(=O)(=O)N(C)CC(=O)Nc2ccccc2SC)cc1Cl	0.85	2.1%	i
Cc1ccc(-c2cc(C(=O)NCc3ccc4c(c3)OCO4)no2)cc1	-0.72	2.8%	i
CCN1CCCC1Cn1cnc2c([nH]c3ccc(C)cc32)c1=O (stereo unspecified)	0.63	-7.8%	i
Nn1c(SC/C=C/c2ccccc2)nnc1-c1ccco1	-0.96	-9.9%	i
COCC(C)NS(=O)(=O)c1ccc(OC)cc1 (stereo unspecified)	-0.32	6.2%	i

Screening data: PubChem, several laboratories
